HPGD inh – qHTS Assay for Inhibitors of HPGD (15-Hydroxyprostaglandin Dehydrogenase) | 15-hydroxyprostaglandin dehydrogenase [NAD(+)] (Homo sapiens), P15428 | purified HPGD, NADH fluorescence kinetic, PGE2 substrate | Potency, µM, inactives show at the top dose activity change, negative = inhibition, most hits filed as inhibitors | 4.3% of 150,000 active | AID 894, 2007; active = well fitted inhibition curve with a large enough effect (not every such curve was filed as active); inconclusive = small, poorly fitted or top-dose-only effect, or another doubt; inactive = no such curve, though single readings can be large or run the other way;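 note: top concentration of the series not given in the record; plate controls included wells without enzyme; inactives centre near -10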
Target sequence (P15428 whole entry, looked up): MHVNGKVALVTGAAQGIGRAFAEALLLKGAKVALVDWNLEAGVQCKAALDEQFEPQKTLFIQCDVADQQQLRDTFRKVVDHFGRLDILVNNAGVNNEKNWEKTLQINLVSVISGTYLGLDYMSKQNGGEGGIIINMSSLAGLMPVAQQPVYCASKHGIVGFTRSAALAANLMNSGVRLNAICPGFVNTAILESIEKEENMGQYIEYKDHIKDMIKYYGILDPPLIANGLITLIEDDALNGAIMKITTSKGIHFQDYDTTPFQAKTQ
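NADH formation kinetics: reaction with 30 uM PGE2 and 1 mM NAD+ (final), 20 nM enzyme, Tris-HCl pH 8 with Tween 20, after 15 min compound preincubation at room temperature. Fluorescence change, last versus first of five reads.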
An asterisk follows results filed as active. % is set by controls: 0 for no effect and ±100 for the full control effect; potency is the fitted concentration of half-maximal effect. Not all compounds are listed; rates above refer to the full screens.

Screening Cc1ccc(/C=N/N2C(=O)c3ccccc3NC2c2ccc(C)cc2)cc1 (stereo unspecified) returned HPGD inh inconclusive.
CCOC(=O)c1[nH]c2ccc(OC)cc2c1NC(=O)c1ccc2c(c1)OCO2 was read as HPGD inh inactive.
Screening CN(C1=NC(=O)C(CC(=O)Nc2ccc(Br)cc2)S1)c1ccc(O)cc1 (stereo unspecified) returned HPGD inh -15%.
`CCCn1c2ccccc2c2nnc(SCc3[nH]c(=O)[nH]c3C(=O)CCCCC(=O)OCC)nc21` gave HPGD inh -7%.
Screening Cc1oc(-c2ccc(Cl)cc2)nc1CS(=O)CC(=O)NCCCN(C)C1CCCCC1 (stereo unspecified) returned HPGD inh 3%.
For O=C(NC1CCCCCCC1)c1cnccn1 the results were HPGD inh -14%.
CC(=O)Nc1ccc(NC(=O)C(C)c2cccc(C(=O)c3ccccc3)c2)cc1 (stereo unspecified) was read as HPGD inh -16%.
`CCOC(=O)Cc1csc(NC(=S)NC(=O)c2ccccc2)n1` gave HPGD inh -8%.
For C[C@H]1Cc2c(-c3ccccc3)nc3c(c2CO1)CN(C(=O)Cc1cccs1)CC3 the results were HPGD inh -4%.
Cc1nn(C(=O)c2nn(C)cc2Cl)c(C)c1Br was read as HPGD inh -6%.
For CCC(C)(C)NC(=O)CN(C(=O)CNS(=O)(=O)c1ccccc1)c1ccccc1 the results were HPGD inh 0%.
`COc1ccc(OC)c(C(=O)c2ccc(C(=O)N3CCCCC3)cc2)c1` gave HPGD inh 0.25µM*.
CCCCOc1ccc(-c2nnn(CC(=O)c3c[nH]c4ccccc34)n2)cc1 was read as HPGD inh -18%.
Screening CCCC[C@@H]1C[C@H]1C(NC(=O)c1ccccc1)c1ccc(-c2ccccc2)cc1 (stereo partly specified) returned HPGD inh -17%.
For CC(=O)NN1C(=O)/C(=C/c2ccc(Br)o2)SC1=S the results were HPGD inh inconclusive.
COc1ccc(CN(C)CC(=O)Nc2cc(OC)c([N+](=O)[O-])cc2C)c(OC)c1 was read as HPGD inh -7%.
For CN(CCc1ccccn1)c1ncnc2[nH]ncc12 the results were HPGD inh -7%.
Screening Cc1ccc(-c2nc(N)n(C(=O)Cc3ccccc3)n2)cc1 returned HPGD inh -14%.
CCN(CC)CCNC(=O)C12CC3CC(C)(CC(C)(C3)C1)C2 was read as HPGD inh -8%.
Screening O=C(O)CN1C(=O)CCS(=O)c2ccccc21 (stereo unspecified) returned HPGD inh -10%.
O=C(Nc1cccc(F)c1)N1CCCC2(CCNCC2)C1 was read as HPGD inh -10%.
`Cc1ccccc1OCC(=O)O/N=C(\N)Cc1ccc(Cl)cc1` gave HPGD inh -14%.
`CC(C)(C)OC(=O)NCC(=O)NCC(=O)OCc1ccccc1` gave HPGD inh 0%.
`CC1CCN(c2ncnc3ccccc23)CC1` gave HPGD inh -12%.
`Fc1cccc(CSc2ncnc3c2ncn3[C@H]2CCCS2)c1` gave HPGD inh -24%.
Screening Cc1ccc(NC(=O)c2ccc(OC(=O)CCN3C(=O)c4ccccc4C3=O)cc2)cc1 returned HPGD inh inconclusive.
`O=C1CCSc2cccc3cccc(c23)N1` gave HPGD inh -10%.
COC(=O)c1ccccc1NC(=O)Cn1nc2n(C)c3ccccc3n2c(=O)c1=O was read as HPGD inh -18%.
Screening COc1ccc2nc(NC(=O)CSc3nnc(N)s3)sc2c1 returned HPGD inh -12%.
N#C/C(=C\c1c(N2CCCCC2)nc2ccccn2c1=O)C(=O)NCc1ccco1 was read as HPGD inh -27%.
Screening Cc1ccc(-c2nn(C)c(=O)c3ccccc23)cc1CNC(=O)c1ccco1 returned HPGD inh 3.5µM*.
O=C1OCCN1C(=O)[C@H]1[C@H](c2ccc(F)cc2)C(c2ccc(F)cc2)=NN1c1ccccc1 was read as HPGD inh inconclusive.
`O=C(CSc1ccc(-c2cccs2)nn1)N1CCCCCC1` gave HPGD inh 11µM*.
For COc1ccc2cc(C(C)CO)ccc2c1 (stereo unspecified) the results were HPGD inh -8%.
COc1ccc(NC(=O)N2CC[C@@]3(CCCN(C(=O)c4ccco4)C3)C2)cc1 was read as HPGD inh 0%.
Screening COC/C=C/C1=CC2=CC(=O)C(C)(OC(=O)c3cnc4ccccc4n3)C(=O)C2=CN1CCCCO (stereo unspecified) returned HPGD inh -6%.
Screening Brc1ccc(/C=N/N2CCN(C3c4ccccc4-c4ccccc43)CC2)s1 returned HPGD inh -4%.
`c1ccc(C2Nc3ccccc3-c3nc4ccccc4n32)nc1` (stereo unspecified) gave HPGD inh -9%.
Screening CCC(C)NC(=O)c1cc(CC(C)C)on1 (stereo unspecified) returned HPGD inh -11%.
Screening Cn1cccc1/C=C1\CCC/C(=C\c2cccn2C)C1=O returned HPGD inh -1%.
Screening CCOc1ccc(CNc2ccc(N3CCOCC3)c(C(=O)O)c2)cc1 returned HPGD inh -16%.
Cc1ccc(C)c(OCC(O)CN2CCN(CCN3C(=O)c4cccc5cccc(c45)C3=O)CC2)c1 (stereo unspecified) was read as HPGD inh -26%.
Screening CCc1ccc(NC(=O)CSc2n[nH]c(C)c2[N+](=O)[O-])cc1 returned HPGD inh -10%.
For COc1ccc2[nH]c(I)c(CCNC(C)=O)c2c1 the results were HPGD inh -23%.
Cc1nnsc1C(=O)Nc1ccccc1 was read as HPGD inh -19%.
Screening CCn1ncc(C2=NOC(C(=O)Nc3ccc4c(c3)OCO4)C2)c1C (stereo unspecified) returned HPGD inh -3%.
For CCOC(=O)N1CCC2(CC1)C(C#N)=C(N)Oc1c2sc2nc(C)cc(C)c12 the results were HPGD inh -17%.
Screening CCn1c(SCC(O)c2ccccc2)nnc1-c1ccccc1 (stereo unspecified) returned HPGD inh -22%.
Screening Cc1cc([N+](=O)[O-])cc2c1NCC1CC=CC21 (stereo unspecified) returned HPGD inh -2%.
Cc1cc(C)n2nc(C(=O)NCc3ccccc3)nc2n1 was read as HPGD inh 3%.
CCOC(=O)C1=C(NC#N)OC(C)=C(C)C1c1ccc(O)cc1 (stereo unspecified) was read as HPGD inh -29%.
Screening CCSc1nc2c(sc3nc(C)cc(C)c32)c(=O)[nH]1 returned HPGD inh inconclusive.
CCC(C)N(C(=O)C(F)(F)F)C(C(=O)NC1CCCCC1)c1ccncc1 (stereo unspecified) was read as HPGD inh -6%.
CCn1c(=O)c(=O)[nH]c2cc(C(=O)NCC3CCCCC3)ccc21 was read as HPGD inh inconclusive.
Screening COC(=O)c1c(N)sc(C(=O)N2CCOCC2)c1C returned HPGD inh -8%.
Screening Cc1ccc(-c2nc(C)sc2CC(=O)NCc2ccco2)cc1 returned HPGD inh -7%.
Screening Cc1cc(C)nc(SCc2nnc(SCC(=O)Nc3c(C)cccc3C)o2)n1 returned HPGD inh -4%.
CCOc1ccccc1NC(=O)C(CC(C)C)NC(=O)C1CCC(C)CC1 (stereo unspecified) was read as HPGD inh -10%.
For CC(=O)c1ccc(NS(=O)(=O)c2ccc(CC(C)C)cc2)cc1 the results were HPGD inh inconclusive.
N#CC(c1ccc(Cl)cc1)c1nc2ccccc2nc1C(F)(F)F (stereo unspecified) was read as HPGD inh -23%.
Screening O=C(NO)C1CC2C=CC1C2 (stereo unspecified) returned HPGD inh -5%.
For COC(=O)[C@H]1C[C@@H]1[C@H](NC(=O)c1cccnc1)c1ccccc1 the results were HPGD inh -1%.
`Cc1ccc(N(C(=O)Cn2nnc(-c3ccc(C)o3)n2)C(C(=O)NC2CCCC2)c2ccco2)cc1` (stereo unspecified) gave HPGD inh -12%.
For [N-]=[N+]=CC(=O)CNC(=O)[C@@H](Cc1ccccc1)N1C(=O)c2ccccc2C1=O the results were HPGD inh 0%.
`COc1ccccc1CN1CCCC2(CCN(C(C)=O)CC2)C1` gave HPGD inh -2%.
For CC1=NC(C)Cc2ccccc21 (stereo unspecified) the results were HPGD inh -11%.
Screening CCOC(=O)C1=C(CC)OC(N)=C(C#N)C1c1cccs1 (stereo unspecified) returned HPGD inh -17%.
Cn1ncc([N+](=O)[O-])c1C(=O)Nc1ccc2c(c1)OCCO2 was read as HPGD inh -10%.
Screening CCOC(=O)c1ccccc1NC(=O)c1n[nH]c(=O)c2ccccc12 returned HPGD inh -20%.
COc1ccccc1NC(=S)NCc1ccco1 was read as HPGD inh -29%.
For CCOC(=O)c1c(C)n(C)c2ccc(OCC(O)CN3CCN(C)CC3)cc12 (stereo unspecified) the results were HPGD inh -4%.
For COCCOC(=O)C1=C(N)OC2=C(C(=O)CC(C)(C)C2)C1c1cccnc1 (stereo unspecified) the results were HPGD inh -7%.
CCC(C)N(C(=O)c1csnn1)C(C(=O)NCc1ccc(F)cc1)c1ccco1 (stereo unspecified) was read as HPGD inh -13%.
O=c1c2ccccc2nc2c3ccccc3c(NCc3ccco3)nn12 was read as HPGD inh inconclusive.
For CCOc1ncccc1C(=O)NCc1ccc(OC)cc1 the results were HPGD inh inconclusive.
O=C(CSc1oc(-c2ccco2)nc1S(=O)(=O)c1ccc(Cl)cc1)NCC1CCCO1 (stereo unspecified) was read as HPGD inh -16%.
CCC(=O)N1CCN(C(C)=O)C1c1ccccc1 (stereo unspecified) was read as HPGD inh -5%.
Screening CCOC(=O)c1cncc(C(=O)O)c1 returned HPGD inh -12%.
Screening CS(=O)(=O)N1CCC2(CCCN(c3ccncc3)C2)CC1 returned HPGD inh -3%.
For O=S(=O)(Nc1nc2c(s1)CCCC2)c1ccc2ccccc2c1 the results were HPGD inh -24%.
CC(C)(C)CC(=O)NCc1ccc(F)cc1 was read as HPGD inh 22µM*.
Screening Cc1ccc(S(=O)(=O)NC2(C(F)(F)F)C(=O)Nc3c2c(=O)[nH]c(=O)n3-c2ccccc2)cc1 (stereo unspecified) returned HPGD inh -20%.
Screening COc1ccc2c(Cl)c(-c3nnc(SCC(N)=O)n3C)sc2c1 returned HPGD inh -10%.
Cc1ccc(S(=O)(=O)NC(CC(=O)O)c2ccco2)cc1 (stereo unspecified) was read as HPGD inh -13%.
For COc1ccc(C2CC(c3ccc4ccccc4c3OC(C)=O)=NN2C(=O)/C=C/c2ccccc2)cc1 (stereo unspecified) the results were HPGD inh inconclusive.
Screening COc1ccc(S(=O)(=O)CCC(=O)N2CC(=O)N(CCc3ccccc3)C(=O)C2)cc1 returned HPGD inh -7%.
Screening N#Cc1nc(-c2ccco2)oc1NCCN1CCOCC1 returned HPGD inh inconclusive.
For CCOC(=O)C1=C(C)NC(=O)NC1c1ccc(-c2ccccc2F)o1 (stereo unspecified) the results were HPGD inh 6%.
`Cn1c(=O)c2c(nc(Br)n2CCc2ccccc2)n(C)c1=O` gave HPGD inh -13%.
Screening CCS/C(N)=N/N=C/c1cc(C)ccc1O returned HPGD inh -24%.
For O=C(COc1cccc(NC(=O)c2cccs2)c1)c1ccc(F)cc1 the results were HPGD inh 16µM*.
For COc1ccc(C(c2sc3ncnn3c2O)N2CC(C)OC(C)C2)cc1OC (stereo unspecified) the results were HPGD inh -16%.
`O=C(CC1S/C(=N/N=C/c2c[nH]c3ccc(OCc4ccccc4)cc23)NC1=O)Nc1ccccc1` (stereo unspecified) gave HPGD inh -26%.
Screening COCCn1c(=O)c(-c2cc(F)cc(F)c2)nc2cnc(Nc3cccc(OC)c3)nc21 returned HPGD inh -8%.
O=C1CC(c2ccccc2)CC(O)=C1C=NC1CCCCCC1 (stereo unspecified) was read as HPGD inh -4%.
COCCCNC(=O)Cc1ccccc1OC was read as HPGD inh -12%.
For O=C(OC1CCCCC1=O)c1cccc(S(=O)(=O)NCc2ccccc2)c1 (stereo unspecified) the results were HPGD inh -14%.
`O=S(=O)(c1ccccc1)n1ccc2cccnc21` gave HPGD inh -10%.
N=C(c1ccc2ccccc2c1)c1ccccc1Cc1ccccc1 was read as HPGD inh -11%.
`Cc1ccc(C(=O)c2coc3ccc(O)c(CN4CCN(C)CC4)c23)cc1` gave HPGD inh -1%.
`CCCn1c(-c2ccc(F)cc2)nc2c(NCCN3CCSCC3)nc(C)nc21` gave HPGD inh -6%.
Screening Nc1nonc1-c1nc2ccccc2[nH]1 returned HPGD inh inconclusive.
Screening Cc1cc(C)n(CC(=O)n2c3c(c4ccccc42)CCCC3)n1 returned HPGD inh -11%.
Screening CCN(CC)S(=O)(=O)c1cc([N+](=O)[O-])ccc1NNC(=O)Nc1ccc(F)cc1 returned HPGD inh -20%.
